# Screens: PubChem, Broad Institute
# A1 apoptosis 2 – A1 inhibitors via caspase activation, primary screen, cell-based, luminescence, HTS, two replicates | MEF A1-2A-BIM cells, caspase-Glo luminescence, 3 h; percent of clofoctol response, DMSO zero | caspase activation, % (concentration not given with the values) | 24,000 tested, under 10 active | AID 2465, 2010; in the data active = caspase activation above about 5.9%;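 also: wells of about 30 µL received 50 nL stock; the first replicate is given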
#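 system = A1-2A-BIM-expressing MEF cells | quantity = 2500 MEF cells/well | dosing = 50 nL compound per well, pinned | schedule = overnight cell settling, then 3 h compound exposure, 37 °C | signal = luminescence from DEVD-luciferin Caspase-Glo reagent, 1:1 in 50 mM HEPES, 1 h RT | read-out = Caspase-3/7 activation, seen as rise in luminescence signal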
# An asterisk follows results filed as active. Not all compounds are listed; the hit share may differ from the screen's.
SMILES,A1 apoptosis 2
C[C@@H]1CN([C@@H](C)CO)C(=O)c2cc(NS(C)(=O)=O)ccc2O[C@@H](C)CCCCO[C@H]1CN(C)C(=O)Nc1ccc(F)cc1,-0.2
C[C@@H]1CCCCO[C@H](CN(C)S(=O)(=O)c2cn(C)cn2)[C@@H](C)CN([C@H](C)CO)C(=O)c2cc(NS(=O)(=O)c3ccc(Cl)cc3)ccc2O1,0.1
COc1ccc(S(=O)(=O)N(C)C[C@H]2Oc3ccc(NC(=O)C4CC4)cc3C(=O)N([C@@H](C)CO)C[C@H]2C)cc1,-0.8
CC(C)NC(=O)Nc1ccc2c(c1)C(=O)N([C@@H](C)CO)C[C@H](C)[C@@H](CN(C)S(C)(=O)=O)OCCCC[C@H](C)O2,1.5
C[C@H](CO)N1C[C@H](C)[C@@H](CN(C)Cc2ccc(Oc3ccccc3)cc2)Oc2ccc(NC(=O)NC3CCCCC3)cc2CC1=O,1.6
C=CCNC(=O)[C@@H]1[C@H]2C(=O)O[C@H](c3ccccc3)[C@H](c3ccccc3)N2[C@H](c2ccc(OCCO)cc2)[C@@]12C(=O)Nc1ccccc12,-0.7
Cc1noc(C)c1NC(=O)N(C)C[C@H]1Oc2ccc(NC(=O)CCC(F)(F)F)cc2C(=O)N([C@H](C)CO)C[C@@H]1C,1.2
COc1ccc(S(=O)(=O)N(C)C[C@@H]2Oc3c(NC(=O)NC4CCCCC4)cccc3C(=O)N([C@@H](C)CO)C[C@H]2C)cc1,-0.4
C[C@@H]1CN([C@H](C)CO)C(=O)c2cc(NC(=O)c3ccncc3)ccc2O[C@H]1CN(C)C(=O)Nc1ccccc1,-1.4
CNC[C@H]1OCCCC[C@@H](C)Oc2ccc(NC(=O)Nc3ccc(F)cc3)cc2C(=O)N([C@H](C)CO)C[C@H]1C,1.2
CCCCCCC/C=N/NC(=O)CCCCC(=O)NO,1.3
C[C@H]1CN([C@@H](C)CO)C(=O)Cc2cc(NS(=O)(=O)c3ccccc3)ccc2O[C@H]1CN(C)C(=O)Nc1ccc2c(c1)OCO2,-1.2
COc1ccc(NC(=O)N(C)C[C@@H]2Oc3ccc(NS(=O)(=O)c4cn(C)cn4)cc3C(=O)N([C@H](C)CO)C[C@H]2C)cc1,-0.8
C[C@@H]1CCCCO[C@@H](CN(C)C(=O)Nc2cccc3ccccc23)[C@H](C)CN([C@H](C)CO)C(=O)c2cc(NC(=O)Nc3ccc4c(c3)OCO4)ccc2O1,0.6
CN1C(=O)CS(=O)(=O)C1c1ccccc1 (stereo not given),-0.7
C[C@@H]1CN([C@H](C)CO)C(=O)c2cc(NC(=O)CCCN(C)C)ccc2O[C@@H](C)CCCCO[C@@H]1CN(C)Cc1ccc2c(c1)OCO2,-0.3
CC(C)NC(=O)N(C)C[C@H]1Oc2ccc(NS(=O)(=O)c3ccc(F)cc3)cc2CC(=O)N([C@@H](C)CO)C[C@@H]1C,1.3
C[C@@H]1CN([C@H](C)CO)C(=O)c2cccc(NC(=O)c3nc4ccccc4s3)c2O[C@H]1CN(C)C(=O)Nc1ccccc1,-0.9
C[C@H]1CN([C@@H](C)CO)C(=O)c2cccc(NC(=O)c3nc4ccccc4s3)c2O[C@@H]1CN(C)Cc1ccncc1,0.0
C[C@H]1CN([C@@H](C)CO)C(=O)Cc2cc(NC(=O)Nc3ccc(C(F)(F)F)cc3)ccc2O[C@@H]1CN(C)Cc1ccc(C(=O)Nc2ccccc2N)cc1,-0.5
C[C@H]1CCCCO[C@H](CN(C)C(=O)c2ccccc2)[C@@H](C)CN([C@@H](C)CO)C(=O)c2cc(NS(=O)(=O)c3ccccc3)ccc2O1,1.0
COc1ccc(CN(C)C[C@H]2Oc3ccc(NC(=O)Cn4cnnn4)cc3CC(=O)N([C@@H](C)CO)C[C@@H]2C)cc1,-0.9
C[C@@H]1CN([C@H](C)CO)C(=O)c2cc(NC(=O)Nc3ccccc3)ccc2O[C@@H](C)CCCCO[C@H]1CN(C)C(=O)c1ccccc1,0.5
COc1ccc(CN(C)C[C@H]2Oc3ccc(NC(=O)CCCCCC(=O)Nc4ccccc4N)cc3C(=O)N([C@H](C)CO)C[C@H]2C)cc1,0.2
C[C@@H]1CN([C@H](C)CO)C(=O)c2cccc(NC(=O)c3nc4ccccc4s3)c2O[C@H]1CN(C)Cc1ccc(-c2ccccc2)cc1,-1.5
COc1ccc(NC(=O)Nc2ccc3c(c2)C(=O)N([C@@H](C)CO)C[C@@H](C)[C@@H](CN(C)C(=O)Cc2ccccc2)OCCCC[C@@H](C)O3)cc1,0.6
C[C@@H]1CCCCO[C@H](CN(C)S(=O)(=O)c2cccs2)[C@@H](C)CN([C@H](C)CO)C(=O)c2cc(NC(=O)CCC(F)(F)F)ccc2O1,-0.5
O=C(NO)c1cccc(C(=O)N/N=C/c2nccs2)c1,-1.1
C[C@H]1CCCCO[C@H](CN(C)C(=O)Nc2cccc3ccccc23)[C@@H](C)CN([C@@H](C)CO)C(=O)c2cc(N(C)C)ccc2O1,-0.4
C[C@H](CO)N1C[C@H](C)[C@H](CN(C)C(=O)NC2CCCC2)Oc2ncc(-c3ccc(F)cc3)cc2C1=O,0.0
COc1ccc(CN(C)C[C@H]2Oc3ccc(NC(=O)CCC(F)(F)F)cc3CC(=O)N([C@@H](C)CO)C[C@@H]2C)cc1,-0.5
COc1ccc(NC(=O)N(C)C[C@H]2OCCCC[C@H](C)Oc3ccc(NS(=O)(=O)c4ccccc4)cc3C(=O)N([C@@H](C)CO)C[C@H]2C)cc1,1.0
O=C(N/N=C/c1ccc(Br)s1)c1ccccn1,-9.6
C[C@@H]1CN([C@@H](C)CO)C(=O)c2cc(NS(C)(=O)=O)ccc2O[C@@H](C)CCCCO[C@H]1CN(C)C(=O)CCCN(C)C,-0.4
COc1ccc(NC(=O)Nc2ccc3c(c2)C(=O)N([C@H](C)CO)C[C@@H](C)[C@@H](CN(C)Cc2ccc(C(F)(F)F)cc2)OCCCC[C@@H](C)O3)cc1,-0.5
C[C@@H]1CN([C@H](C)CO)C(=O)c2cccc(NC(=O)Nc3ccc4c(c3)OCO4)c2O[C@H]1CN(C)S(=O)(=O)c1cn(C)cn1,0.5
C[C@H]1CN([C@@H](C)CO)C(=O)Cc2cc(NS(=O)(=O)c3ccc(Cl)cc3)ccc2O[C@@H]1CN(C)C(=O)Nc1ccc2c(c1)OCO2,-0.8
C[C@H]1CN([C@@H](C)CO)C(=O)c2cc(NC(=O)c3ccncc3)ccc2O[C@@H]1CN(C)C(=O)Nc1ccc(F)cc1,-0.8
COc1ccc(S(=O)(=O)N(C)C[C@H]2OCCCC[C@H](C)Oc3ccc(NS(=O)(=O)c4c(C)noc4C)cc3C(=O)N([C@H](C)CO)C[C@H]2C)cc1,1.1
C[C@@H]1CCCCO[C@@H](CN(C)Cc2ccccc2)[C@@H](C)CN([C@@H](C)CO)C(=O)c2cc(NS(=O)(=O)c3cn(C)cn3)ccc2O1,-1.7
COc1ccc(CN(C)C[C@@H]2Oc3ccc(NC(=O)Nc4ccc(C(F)(F)F)cc4)cc3C(=O)N([C@@H](C)CO)C[C@H]2C)cc1,-1.2
COc1ccc(S(=O)(=O)Nc2ccc3c(c2)C(=O)N([C@H](C)CO)C[C@H](C)[C@H](CN(C)C(=O)Cc2ccccc2)OCCCC[C@H](C)O3)cc1,2.0
C[C@@H]1CN([C@H](C)CO)C(=O)c2cccc(NC(=O)C3CCCCC3)c2O[C@H]1CN(C)S(=O)(=O)c1cn(C)cn1,0.9
Cc1ccc(S(=O)(=O)Nc2ccc3c(c2)CC(=O)N([C@@H](C)CO)C[C@H](C)[C@@H](CN(C)S(=O)(=O)c2ccc(F)cc2)O3)cc1,-1.0
C[C@@H]1CN([C@H](C)CO)C(=O)c2cccc(NC(=O)Nc3ccccc3)c2O[C@H]1CN(C)Cc1ccccc1,-1.1

# Structures from the list above that contain two or more sulfur atoms, in the order listed:
SMILES,A1 apoptosis 2
C[C@@H]1CCCCO[C@H](CN(C)S(=O)(=O)c2cn(C)cn2)[C@@H](C)CN([C@H](C)CO)C(=O)c2cc(NS(=O)(=O)c3ccc(Cl)cc3)ccc2O1,0.1
C[C@@H]1CCCCO[C@H](CN(C)S(=O)(=O)c2cccs2)[C@@H](C)CN([C@H](C)CO)C(=O)c2cc(NC(=O)CCC(F)(F)F)ccc2O1,-0.5
COc1ccc(S(=O)(=O)N(C)C[C@H]2OCCCC[C@H](C)Oc3ccc(NS(=O)(=O)c4c(C)noc4C)cc3C(=O)N([C@H](C)CO)C[C@H]2C)cc1,1.1
Cc1ccc(S(=O)(=O)Nc2ccc3c(c2)CC(=O)N([C@@H](C)CO)C[C@H](C)[C@@H](CN(C)S(=O)(=O)c2ccc(F)cc2)O3)cc1,-1.0

# Other structures:
SMILES,A1 apoptosis 2
COc1ccc(CN(C)C[C@H]2Oc3ccc(NC(=O)CCCCCC(=O)Nc4ccccc4N)cc3CC(=O)N([C@@H](C)CO)C[C@H]2C)cc1,0.1
Cc1cc(C(=O)Nc2cccc3c2O[C@@H](CN(C)S(=O)(=O)c2cccs2)[C@H](C)CN([C@H](C)CO)C3=O)n(C)n1,0.8
COc1ccc(NC(=O)Nc2ccc3c(c2)C(=O)N([C@H](C)CO)C[C@H](C)[C@H](CN(C)C(=O)C2CCCCC2)OCCCC[C@@H](C)O3)cc1,-0.2
Cc1ccc(S(=O)(=O)Nc2ccc3c(c2)C(=O)N([C@H](C)CO)C[C@@H](C)[C@@H](CN(C)Cc2ccc(Cl)c(Cl)c2)OCCCC[C@H](C)O3)cc1,0.4
Cc1noc(C)c1NC(=O)Nc1ccc2c(c1)CC(=O)N([C@@H](C)CO)C[C@H](C)[C@H](CN(C)C)O2,0.0
C[C@H](CO)N1C[C@H](C)[C@H](CN(C)Cc2ccc(C(=O)Nc3ccccc3N)cc2)Oc2ccc(NC(=O)Nc3ccc(C(F)(F)F)cc3)cc2C1=O,0.8
CC(C)=CCC[C@@H](C)C/C=N/NC(=O)CCCCCC(=O)O,0.4
Cc1noc(C)c1S(=O)(=O)N(C)C[C@H]1OCCCC[C@H](C)Oc2ccc(NC(=O)NC3CCCCC3)cc2C(=O)N([C@H](C)CO)C[C@H]1C,1.0
COc1ccc(NC(=O)Nc2ccc3c(c2)CC(=O)N([C@@H](C)CO)C[C@H](C)[C@@H](CN(C)S(=O)(=O)c2cccs2)O3)cc1,0.5
Cc1noc(C)c1NC(=O)N(C)C[C@H]1Oc2ccc(NS(=O)(=O)c3c(C)noc3C)cc2CC(=O)N([C@@H](C)CO)C[C@H]1C,-1.1
C[C@@H]1CN([C@H](C)CO)C(=O)c2cc(NC(=O)Nc3ccccc3)ccc2O[C@H]1CN(C)C(=O)NC1CCCCC1,-0.6
Cc1noc(C)c1S(=O)(=O)Nc1ccc2c(c1)C(=O)N([C@@H](C)CO)C[C@@H](C)[C@@H](CN(C)CC1CC1)OCCCC[C@@H](C)O2,-1.0
Cc1cc(C(=O)Nc2cccc3c2O[C@@H](CN(C)Cc2ccc4c(c2)OCO4)[C@H](C)CN([C@H](C)CO)C3=O)n(C)n1,-0.6
C[C@@H]1CN([C@H](C)CO)C(=O)c2cc(NC(=O)CCC(F)(F)F)ccc2O[C@@H]1CN(C)C(=O)NC1CCCCC1,0.9
Cc1noc(C)c1NC(=O)N(C)C[C@@H]1OCCCC[C@@H](C)Oc2ccc(NC(=O)Nc3ccc(C(F)(F)F)cc3)cc2C(=O)N([C@H](C)CO)C[C@H]1C,0.5
CNC[C@@H]1Oc2ccc(NS(=O)(=O)c3c(C)noc3C)cc2C(=O)N([C@H](C)CO)C[C@@H]1C,0.2
Cc1noc(C)c1S(=O)(=O)N(C)C[C@@H]1Oc2ccc(NC(=O)CCCN(C)C)cc2CC(=O)N([C@@H](C)CO)C[C@H]1C,0.2
C[C@@H]1CN([C@H](C)CO)C(=O)c2cccc(NS(C)(=O)=O)c2O[C@@H]1CN(C)S(=O)(=O)c1ccc(F)cc1,-0.2
C[C@H]1CN([C@@H](C)CO)C(=O)Cc2cc(NS(=O)(=O)c3ccc(F)cc3)ccc2O[C@@H]1CN(C)Cc1ccc(Oc2ccccc2)cc1,2.3
C[C@@H]1CCCCO[C@H](CN(C)C(=O)Nc2ccccc2)[C@H](C)CN([C@@H](C)CO)C(=O)c2cc(NC(=O)C3CCCCC3)ccc2O1,-1.6
Cc1ccc(S(=O)(=O)Nc2ccc3c(c2)C(=O)N([C@H](C)CO)C[C@H](C)[C@H](CN(C)S(=O)(=O)c2ccccc2)O3)cc1,-1.4
C[C@@H]1CN([C@@H](C)CO)C(=O)c2cccc(NC(=O)c3cnccn3)c2O[C@@H]1CN(C)Cc1ccc(C(F)(F)F)cc1,0.8
C[C@@H]1CN([C@H](C)CO)C(=O)c2cc(NC(=O)Nc3ccc(F)cc3)ccc2O[C@H]1CN(C)C(=O)Nc1ccccc1,-1.2
C[C@@H]1CN([C@H](C)CO)C(=O)c2cc(NS(=O)(=O)c3ccc(Cl)cc3)ccc2O[C@@H]1CN(C)S(=O)(=O)c1cn(C)cn1,-0.1
CNC[C@@H]1Oc2c(NS(=O)(=O)c3cccs3)cccc2C(=O)N([C@@H](C)CO)C[C@@H]1C,1.7

# Part of the list above in another layout.
Structure | A1 apoptosis 2
Cc1noc(C)c1S(=O)(=O)N(C)C[C@@H]1Oc2ccc(NC(=O)CCCN(C)C)cc2CC(=O)N([C@@H](C)CO)C[C@H]1C | 0.2
C[C@H]1CN([C@@H](C)CO)C(=O)Cc2cc(NS(=O)(=O)c3ccc(F)cc3)ccc2O[C@@H]1CN(C)Cc1ccc(Oc2ccccc2)cc1 | 2.3
C[C@@H]1CN([C@H](C)CO)C(=O)c2cccc(NS(C)(=O)=O)c2O[C@@H]1CN(C)S(=O)(=O)c1ccc(F)cc1 | -0.2
